Screening data (PubChem BioAssay)
UUG fidelity: alters start codon recognition fidelity in yeast; activity score, % at 18.7 µM; S. cerevisiae UUG-firefly luciferase reporter, luminescence/redox ratio; AID 602363; 350,000 compounds, 0.13% hits;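 active = replicate mean at a twofold rise or more, about +100% in these data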;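 note: firefly luciferase made from a UUG start codon reports start codon fidelity; reporter light over untreated wells divided by growth signal over untreated wells; some hits fall short of that in this replicate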
CSC inhib: cancer stem cell inhibition; cancer stem cell-like cells viability, luminescence; inhibition, % at 7.5 µM; 300,000 compounds, 1.1% hits;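 active = mean at 75% or more and at least half the replicates too; inconclusive = mean and replicates disagree; tested in HMLE shEcad cells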;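 note: 0% = median of negative and 100% = median of positive control wells; the first replicate is given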
MT1-MMP act inh: inhibitors of human MT1-MMP activation; P50281; HT1080 RFP-PRO-GFP cells, GFP/RFP ratio fluorescence, overnight; percent of plate control window, DMSO zero; AID 651647; GFP/RFP ratio change, % at 20 µM; 360,000 compounds, 0.061% hits;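 active = GFP/RFP ratio change of at least 30% with cell ATP level not reduced by more than half and red fluorescence within 50% of control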; note: strong numbers were not always called active
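Assay system: HT1080 RFP-PRO-GFP cells. Benchmarks: DMSO vehicle wells and RFP-L50D-GFP reporter cell wells. Times: overnight cell settling, then overnight compound exposure, 37 °C, 5% CO2. Compound: 20 µM single dose, 1% DMSO. Read-out basis: GFP/RFP fluorescence ratio.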
PABP FP inh: PABP-poly(A) binding inhibition; AID 2014; inhibition, % at 35 µM; 290,000 compounds, 1% hits; PABP-poly(A) RNA binding, fluorescence polarization;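 active = 50% or more with normal probe brightness, or confirmed in later tests; inconclusive = above 50% with abnormal brightness, or retests that disagree; inactive = below 50% or failed in later tests; about a fifth of its hits are not listed in these tables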;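 note: calls also rest on retests at 20 µM and on dose response follow-up; controls were probe without protein and protein plus probe with vehicle; some compounds called inactive have numbers as strong as hits; many hits fall short of the cut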
Target sequence (P11940 whole entry, looked up): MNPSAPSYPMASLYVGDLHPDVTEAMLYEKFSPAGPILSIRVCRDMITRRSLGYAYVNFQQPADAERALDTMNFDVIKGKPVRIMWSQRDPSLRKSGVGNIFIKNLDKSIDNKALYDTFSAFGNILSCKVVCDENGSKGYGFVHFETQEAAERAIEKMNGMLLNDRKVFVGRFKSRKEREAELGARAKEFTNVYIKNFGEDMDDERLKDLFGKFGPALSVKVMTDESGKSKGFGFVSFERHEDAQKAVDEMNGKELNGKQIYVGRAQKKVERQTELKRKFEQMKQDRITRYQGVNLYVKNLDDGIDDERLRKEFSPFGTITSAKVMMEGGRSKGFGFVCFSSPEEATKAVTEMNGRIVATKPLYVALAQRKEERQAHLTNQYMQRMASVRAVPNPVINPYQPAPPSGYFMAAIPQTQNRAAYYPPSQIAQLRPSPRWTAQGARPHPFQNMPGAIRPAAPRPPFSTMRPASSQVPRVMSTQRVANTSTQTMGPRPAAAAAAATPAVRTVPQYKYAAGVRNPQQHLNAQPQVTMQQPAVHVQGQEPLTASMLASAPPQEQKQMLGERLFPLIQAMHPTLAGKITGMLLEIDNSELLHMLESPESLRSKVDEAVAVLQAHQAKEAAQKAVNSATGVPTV
Rce1 inhib: inhibitors of yeast Ras-converting enzyme; yeast membranes, quenched prenylated peptide cleavage fluorescence; calls only; 290,000 compounds, 0.27% hits;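 active = fall in fluorescence gain of 50% or more versus controls, with final raw signal at or below 3038400; inconclusive = same 50% fall but final raw signal above 3038400; inactive = fall in fluorescence gain under 50%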;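 note: plate controls were neutral control wells for no effect and wells lacking membranes for full effect; tested at 10 µM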
Target sequence (Q03530 whole entry, looked up): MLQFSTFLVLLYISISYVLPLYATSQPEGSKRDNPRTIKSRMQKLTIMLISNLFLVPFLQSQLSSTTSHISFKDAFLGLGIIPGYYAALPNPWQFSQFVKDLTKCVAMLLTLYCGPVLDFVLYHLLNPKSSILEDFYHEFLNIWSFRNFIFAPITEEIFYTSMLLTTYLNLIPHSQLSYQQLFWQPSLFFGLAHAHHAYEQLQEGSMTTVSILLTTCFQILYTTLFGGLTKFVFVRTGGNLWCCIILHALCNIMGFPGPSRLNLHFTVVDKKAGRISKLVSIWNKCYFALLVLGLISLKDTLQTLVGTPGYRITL
HIV Env fusion: HIV envelope-mediated fusion inhibition; inhibition, % at 12.3 µM; HeLa-JRFL Env/CEM21 cell fusion, luciferase; 360,000 compounds, 1.1% hits;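 active = mean replicate inhibition score of at least 50 and every replicate individually at or above 50; inconclusive = only one of the two criteria met; inactive = mean below 50 and not all replicates reaching 50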;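 note: 0% = plate neutral controls and 100% = maraviroc near 300 nM; one replicate is shown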
eIF4H FP inh: inhibitors of RNA binding by human eIF4H. Q15056. AID 2012. 290,000 compounds, 0.94% hits. inhibition, % at 35 µM. eIF4H fluorescence polarization binding assay;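 active = 50% or more with normal probe brightness, or confirmed in later tests; inconclusive = above 50% with abnormal brightness, or retests that disagree; inactive = below 50% or failed in later tests; about a fifth of its hits are not listed in these tables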;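 note: calls also rest on retests at 20 µM and on dose response follow-up; 0% = protein and probe with vehicle and 100% = probe without protein; strong numbers were not always called active; many hits fall short of the cut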
MT1-MMP act inh RFP: second read-out of MT1-MMP act inh, no call of its own (marks repeat the call); RFP signal change, %; measured here: RFP expression control read;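 0 = vehicle wells; hits needed this value within 50% of zero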
An asterisk follows results filed as active; i = inactive; ? = inconclusive; . = not tested or not shown. An excerpt, so the mix of outcomes need not match the whole.

Sample of the layout (2 entries):
SMILES	UUG fidelity	CSC inhib	MT1-MMP act inh	MT1-MMP act inh RFP	PABP FP inh	Rce1 inhib	HIV Env fusion	eIF4H FP inh
O=[N+]([O-])c1ccccc1N/N=C/c1ccccc1	-17.5	-4.7	4.5	1.4	6.8	i	-63.3	1.1
CCOc1cc(-c2noc(N)c2C#N)cc(OCC)c1OCC	-2.0	-8.4	-2.4	0.0	-3.4	i	5.0	-4.1

All compounds of this part, from the start:
SMILES	UUG fidelity	CSC inhib	MT1-MMP act inh	MT1-MMP act inh RFP	PABP FP inh	Rce1 inhib	HIV Env fusion	eIF4H FP inh
O=[N+]([O-])c1ccccc1N/N=C/c1ccccc1	-17.5	-4.7	4.5	1.4	6.8	i	-63.3	1.1
CCOc1cc(-c2noc(N)c2C#N)cc(OCC)c1OCC	-2.0	-8.4	-2.4	0.0	-3.4	i	5.0	-4.1
CCCc1cc(=O)oc2cc(C)cc(OCC(=O)NCCN3CCOCC3)c12	-15.3	-24.1	0.0	1.6	-8.8	i	-31.8	-8.5
CCCNC(=O)C(Cc1ccc(OC)cc1)NC(=O)c1ccc(Cl)cc1 (centres undefined)	-13.3	-4.0	-0.7	2.1	.	.	-39.5	.
COc1ccccc1-n1c(SCC(=O)N2CCCCC2)nc(O)c(Cc2ccccc2)c1=O	0.2	-4.4	1.5	0.0	14.7	i	8.4	-2.6
O=C(NCCSc1ccccc1)c1cccnc1	-19.6	-9.0	-1.7	0.2	3.0	i	.	0.0
C/C(=N\NC(=O)CCCNc1ccc(C)cc1)c1ccccn1	.	34.3	5.8	5.0	-7.9	i	3.7	4.2
COc1ccc(C2(CNS(=O)(=O)c3ccc(C)cc3)CCOCC2)cc1	11.4	-4.5	1.7	0.4	6.6	i	13.4	-5.6
CCOCCCN(CCC#N)C(=O)C1CCN(S(=O)(=O)c2ccc(-n3cnnn3)cc2)CC1	0.0	-14.2	-1.3	-1.7	0.0	i	4.5	-1.1
O=C(Nc1cccc(NC(=O)c2ccc(-c3ccc(Br)cc3)o2)c1)c1ccccc1	.	19.5	5.3	-6.1	0.6	i	.	-9.6
O=[N+]([O-])c1ccc(OCCOCCOc2ccc([N+](=O)[O-])cc2)cc1	-33.2	4.5	0.5	-3.5	4.6	i	-5.0	-8.4
O=S(=O)(NC1CCCCC1Sc1ncccn1)c1ccccc1 (centres undefined)	-16.4	-2.1	3.1	3.5	13.5	i	15.0	3.4
O=S(=O)(NCc1ccco1)c1cnc(Cl)c(Cl)c1	-17.7	-16.0	2.8	-2.7	-5.9	i	14.1	-13.3
O=C(CCN1CCCCC1)Nn1c(=S)[nH]c2ccccc2c1=O	-17.9	4.7	3.7	6.6	0.2	i	-67.0	-5.7
Cc1ccc(Nc2nc(-c3cccs3)cs2)nc1	-69.9	-2.6	-8.2	-9.6	0.1	i	-74.6	-3.6
COc1cc(C(=S)N2CCOCC2)ccc1OC(=O)c1cc([N+](=O)[O-])cc([N+](=O)[O-])c1	-22.2	-9.9	3.7	4.9	1.1	i	14.0	-7.5
O=C(c1cccc(F)c1)N1CCN(S(=O)(=O)c2ccccc2)CC1	-11.1	-9.4	-0.3	4.8	-3.8	i	.	-2.6
COCc1c(C(=O)N2CCN(CCOc3ccccc3)CC2)oc2ccccc12	-21.7	4.2	-1.3	-2.0	.	.	-12.1	.
CCc1ccc(CC2S/C(=C(\C#N)C(C)=O)NC2=O)cc1 (centres undefined)	-18.2	52.0	-29.5	-2.9	12.3	i	-4.4	1.4
CCOCCC(=O)Nc1ccc2c(c1)c(=O)n(C)n2-c1ccc2ccccc2c1	-10.8	.	13.6	-0.9	.	.	-135.7	.
COc1ccc(-c2cc(C(F)(F)F)nc(SCC(=O)Nc3cc(C)on3)n2)cc1	-9.2	-13.4	6.6	2.8	-12.3	i	.	-0.7
CCOC(=O)NC(NCc1ccccc1Cl)(C(F)(F)F)C(F)(F)F	-19.4	-5.9	3.5	4.2	-7.8	i	3.3	-8.1
O=C(CNC(=S)N(CCCN1CCOCC1)Cc1cccs1)N1CCCC1	-20.3	-16.5	13.8	5.8	2.5	i	3.6	7.1
O=c1sc2ccccc2c(N2CCCC2)c1[N+](=O)[O-]	-17.2	9.2	5.2	2.5	?	i	0.7	-2.5
CCc1ccc2c(Cl)c(C(=O)N/N=C/c3c[nH]c4ccccc34)sc2c1	-7.8	62.1	0.3	1.5	-13.1	i	.	-8.4
Cc1ccc(S(=O)(=O)CCSc2n[nH]c(=O)n2-c2ccc3c(c2)OCCO3)cc1	.	8.6	1.9	-9.0	-7.7	i	6.4	2.3
N#Cc1nc(COc2ccccc2Cl)oc1NCc1ccc(F)cc1	5.0	.	3.3	-1.9	-3.3	i	.	-2.0
COCCn1ccc2c(OCC(=O)NCCc3ccccc3)cccc2c1=O	2.3	2.3	4.2	0.7	.	i	4.5	.
NS(=O)(=O)c1ccc(NC(=O)CN(C(=O)C(F)(F)F)C2CCCC2)cc1	-13.2	.	-0.6	-0.4	.	.	-31.5	.
Cc1ccc(/C=N/N2CCN(c3ccccc3)CC2)cc1	.	-3.5	4.8	-0.8	-5.3	i	-44.7	0.7
CCOC(=O)c1c(Nc2ccccc2OCCOC)n[nH]c1C	-4.4	-10.9	-0.2	-4.6	-4.4	i	1.9	0.7
O=C(CCn1nnc2ccccc2c1=O)N[C@H](C(=O)O)c1ccccc1	14.1	-2.8	-1.3	2.2	14.1	i	-35.5	-5.7
Cn1c(CCCNC(=O)c2ccco2)nc2ccccc21	-16.2	.	2.5	4.6	.	.	-2.5	.
CC1(C)CC(=NOC(=O)c2ccccc2)CC(C)(C)N1O	3.2	3.9	0.8	1.2	-17.8	i	-7.9	-0.3
O=C(NCCCn1ccnc1)C(=O)NCC1OCCN1S(=O)(=O)c1ccc(F)cc1 (centres undefined)	-14.6	32.9	1.5	4.5	5.0	i	5.7	26.3
O=C(OCC(=O)N1CCN(c2ccccc2)CC1)c1ccc2ccccc2n1	-13.4	-9.6	0.8	2.0	8.2	i	-67.6	-7.2
COc1cccc(N2CC(C(=O)Nc3nnc(SCC(=O)Nc4cc(C)on4)s3)CC2=O)c1 (centres undefined)	13.8	-11.1	7.9	3.4	-21.1	i	6.0	12.2
CC1(C)Cc2ccccc2C(N/N=C/c2ccc([N+](=O)[O-])cc2)=N1	.	.	3.6	2.8	6.0	i	-0.9	-7.7
CSc1ccc(/C=N/S(=O)(=O)c2ccccc2)cc1	-4.7	4.0	-1.3	-2.6	2.5	i	-8.8	1.3
Brc1cccc(CN2CCN(c3ncccn3)CC2)c1	-7.5	-27.6	1.1	-1.3	9.0	i	-23.1	16.1
CN(CC(=O)Nc1ccc(Cl)c(C(F)(F)F)c1)C(=O)C1CCC1	8.7	.	3.9	-3.0	.	i	4.5	.
CSc1ncccc1C(=O)N1CCN(S(=O)(=O)c2cc(C)ccc2C)CC1	3.8	0.1	1.5	3.8	3.0	i	3.2	-3.1
Nc1c2c(nc3c1CCC3)CCCC2	.	-11.3	.	.	-0.3	i	.	-3.5
CC(C)(C)c1ccc(CS(=O)(=O)CC(O)CN2CCCC2=O)cc1 (centres undefined)	6.7	-11.1	1.6	2.0	4.0	i	-12.2	-13.5
CN(C)C(=O)c1cccc(-c2ccc3nncn3c2)c1	-21.4	.	6.7	9.6	.	.	-22.3	.
CC(=O)Nc1ccc(N2C(=O)C3C4CC(=O)C(c5ccccc54)C3C2=O)cc1 (centres undefined)	-9.7	4.9	-4.1	0.6	1.1	i	.	-9.1
Cc1cc(C(=O)CSc2nncn2C)c(C)n1-c1ccccc1	.	9.8	2.9	1.9	6.6	i	-13.7	-9.9
COc1ccc(NS(=O)(=O)c2cccc(NC(=O)c3ccccn3)c2)cc1	-11.6	0.1	-4.4	-21.8	4.3	i	-11.1	-9.6
OC(c1ccc(F)cc1)c1ncc(-c2ccc(Oc3ccccc3)cc2)[nH]1 (centres undefined)	-14.9	.	-4.8	-10.8	.	.	-4.0	.
C/C(=N\NC(=O)c1ccccc1F)c1cccc(NC(=O)c2ccccc2)c1	-8.2	.	-0.6	0.7	4.3	i	-4.1	-7.4

Quoted at random: 7 entries already listed
SMILES	UUG fidelity	CSC inhib	MT1-MMP act inh	MT1-MMP act inh RFP	PABP FP inh	Rce1 inhib	HIV Env fusion	eIF4H FP inh
CC(C)(C)c1ccc(CS(=O)(=O)CC(O)CN2CCCC2=O)cc1 (centres undefined)	6.7	-11.1	1.6	2.0	4.0	i	-12.2	-13.5
OC(c1ccc(F)cc1)c1ncc(-c2ccc(Oc3ccccc3)cc2)[nH]1 (centres undefined)	-14.9	.	-4.8	-10.8	.	.	-4.0	.
CN(CC(=O)Nc1ccc(Cl)c(C(F)(F)F)c1)C(=O)C1CCC1	8.7	.	3.9	-3.0	.	i	4.5	.
CC(=O)Nc1ccc(N2C(=O)C3C4CC(=O)C(c5ccccc54)C3C2=O)cc1 (centres undefined)	-9.7	4.9	-4.1	0.6	1.1	i	.	-9.1
COc1ccc(NS(=O)(=O)c2cccc(NC(=O)c3ccccn3)c2)cc1	-11.6	0.1	-4.4	-21.8	4.3	i	-11.1	-9.6
C/C(=N\NC(=O)c1ccccc1F)c1cccc(NC(=O)c2ccccc2)c1	-8.2	.	-0.6	0.7	4.3	i	-4.1	-7.4
CSc1ncccc1C(=O)N1CCN(S(=O)(=O)c2cc(C)ccc2C)CC1	3.8	0.1	1.5	3.8	3.0	i	3.2	-3.1

The results go on.
SMILES	UUG fidelity	CSC inhib	MT1-MMP act inh	MT1-MMP act inh RFP	PABP FP inh	Rce1 inhib	HIV Env fusion	eIF4H FP inh
Cc1ccc(N=Nc2c(O)ccc3n[nH]nc23)cc1	-15.6	7.6	14.9	-28.5	3.7	i	-50.3	-9.6
CCOc1ccccc1N(CC(=O)NC1CCCCC1)S(C)(=O)=O	-14.0	-5.2	2.9	5.3	-0.3	i	6.4	-5.7
COc1ccccc1CNC(=O)COC(=O)C1CCN(S(=O)(=O)c2ccc(C)c(C)c2)CC1	-3.7	-12.3	-2.7	2.1	.	i	.	.
COCCN(C(=O)CCCC(=O)Nc1ccccn1)C(C(=O)NC1CCCCC1)c1ccc(C)cc1 (centres undefined)	.	-18.3	-1.4	0.9	-6.3	i	.	13.9
Cn1c(=O)oc2cc(S(=O)(=O)N3CCC(C(=O)N4CCN(c5ccc(F)cc5)CC4)CC3)ccc21	-6.5	-2.5	1.5	-6.9	2.0	i	3.7	3.3
Cc1cccc(-c2cc3nc4c(c(N5CCCC(O)C5)n3n2)CCC4)c1 (centres undefined)	-9.1	2.9	-0.9	-8.0	-6.7	i	-144.1	-9.2
O=C1CCc2ccccc2N1	-11.0	-15.1	3.2	8.7	1.1	i	-1.2	-2.3
C/C(=N\Nc1nc(N2CCCCC2)nc(N2CCOCC2)n1)c1ccccc1O	.	59.4	-4.0	-7.0	3.8	i	18.7	-6.2
O=C(NCc1csc2ccc(Cl)cc12)Nc1cccc2ccccc12	.	-10.4	-1.7	-3.3	-4.6	i	-2.4	-11.0
O=C(O)C(NS(=O)(=O)c1cccc2nsnc12)c1ccccc1 (centres undefined)	-14.1	-9.3	-2.9	1.3	14.9	i	-5.7	-1.4
CC1Sc2ccc(S(=O)(=O)CCC(=O)N3CCN(c4ccccc4F)CC3)cc2NC1=O (centres undefined)	-14.8	6.1	-2.6	-9.2	7.5	i	3.5	-16.8
O=C1C2C3C=CC(C3=C(c3ccccc3)c3ccccc3)C2C(=O)N1CCO (centres undefined)	14.1	1.1	.	.	-11.1	i	-0.6	1.5
Cc1ccccc1-c1cc2nc(NCCN3CCNC3=O)n(C)c(=O)c2s1	-12.7	.	4.1	2.6	.	.	21.5	.
CS(=O)(=O)c1ccc(Cl)c(NC(=O)COc2ccc3c(c2)CCC3)c1	-11.5	1.1	-1.1	1.0	.	i	10.0	.
